Screens from PubChem.
Beta cell apopt: inhibitors of cytokine-induced beta cell apoptosis, primary screen, luminescence; AID 435005, 2010; actives 0.8% (n = 300,000); INS-1E cytokine-induced death, ATP luminescence, 48 h; percent of positive-control rescue, neutral wells zero; protection from apoptosis, % (concentration not given with the values);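 active means all replicates at 75% or more, or half of them and the mean; inconclusive means half reach 75% but not the mean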;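 further: 0% = cytokine-treated negative control wells and 100% = positive control rescue; higher means more ATP so stronger rescue from cytokine killing; wells of about 40 µL received 100 nL stock; the first replicate is given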
Calb FLC: C. albicans growth inhibition with fluconazole, primary screen, CaCi-2 strain, Alamar Blue fluorescence; C. albicans CaCi-2 (fluconazole-resistant clinical isolate) + fluconazole, 48 h; growth inhibition, % (concentration not given with the values); actives 0.57% (n = 300,000); AID 1979, 2009;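 active means most replicates above 75%; inconclusive means exactly half above 75%; inactive means most below 75%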;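 further: all wells also contain fluconazole at 8 µg/ml as a sub-toxic cotreatment; 0% = median of DMSO wells and 100% = median of geldanamycin control wells; wells of about 8 µL received 7.5 nL stock; the first replicate is given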
LANA-H2B inh: blockers of LANA interaction with H2A/H2B – biochemical, FP readout, HTS, primary screen; inhibition, % (no concentration beside the values); cell-free LANA-H2A/H2B peptide, fluorescence polarization; actives 0.6% (n = 320,000); Protein LANA1 (Human herpesvirus 8 type P (isolate GK18)), Q9QR71; in the data active means inhibition mostly above about 10%, no sharp cut-off; inactive means mostly below about 6.7%;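 further: stock transfer was 7.5 nL into about 10 µL; 0% = median of vehicle wells and 100% = median of positive control wells; one replicate is shown; the record names a cut of 25% in any replicate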
Target sequence (Q9QR71 whole entry, looked up): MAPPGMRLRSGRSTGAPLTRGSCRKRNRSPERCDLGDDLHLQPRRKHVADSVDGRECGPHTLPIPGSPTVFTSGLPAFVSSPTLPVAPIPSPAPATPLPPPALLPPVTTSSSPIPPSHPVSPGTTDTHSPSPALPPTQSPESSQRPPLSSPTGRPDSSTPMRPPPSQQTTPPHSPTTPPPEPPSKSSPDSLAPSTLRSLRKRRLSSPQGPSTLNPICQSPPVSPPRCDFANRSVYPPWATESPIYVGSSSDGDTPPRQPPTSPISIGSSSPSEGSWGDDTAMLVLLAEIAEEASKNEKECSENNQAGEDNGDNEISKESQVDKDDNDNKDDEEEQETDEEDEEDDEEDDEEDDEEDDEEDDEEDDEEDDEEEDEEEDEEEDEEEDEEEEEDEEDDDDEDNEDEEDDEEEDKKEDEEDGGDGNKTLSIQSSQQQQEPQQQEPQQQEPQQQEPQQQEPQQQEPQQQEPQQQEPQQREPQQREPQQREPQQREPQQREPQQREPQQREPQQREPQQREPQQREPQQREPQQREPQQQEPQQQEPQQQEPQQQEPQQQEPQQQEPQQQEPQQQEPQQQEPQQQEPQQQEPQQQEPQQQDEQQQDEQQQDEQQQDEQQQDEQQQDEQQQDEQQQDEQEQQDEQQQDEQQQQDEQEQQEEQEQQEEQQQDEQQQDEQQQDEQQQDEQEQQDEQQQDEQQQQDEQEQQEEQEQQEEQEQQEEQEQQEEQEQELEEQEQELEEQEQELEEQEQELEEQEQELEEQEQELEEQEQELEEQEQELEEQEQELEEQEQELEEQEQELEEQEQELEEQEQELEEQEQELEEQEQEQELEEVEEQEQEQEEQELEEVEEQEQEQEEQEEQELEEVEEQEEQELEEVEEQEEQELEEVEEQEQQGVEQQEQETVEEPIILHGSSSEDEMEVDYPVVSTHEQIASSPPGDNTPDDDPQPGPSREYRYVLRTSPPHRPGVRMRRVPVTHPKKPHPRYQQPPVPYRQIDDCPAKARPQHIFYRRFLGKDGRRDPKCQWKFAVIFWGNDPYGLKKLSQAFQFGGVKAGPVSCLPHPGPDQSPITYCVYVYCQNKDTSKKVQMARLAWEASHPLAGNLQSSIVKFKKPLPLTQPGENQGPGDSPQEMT
Beta2AR agonist: beta2AR agonists driving receptor internalization, primary screen, cell-based, FAP fluorogen, flow cytometry; Beta-2 adrenergic receptor (Homo sapiens), P07550; Am2.2-beta2AR cells; reference of the scale not given here; response, % (concentration not given with the values); actives 0.43% (n = 340,000); AID 504454, 2011;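 active means response above a set limit, near 3 SD of response in nonfluorescent compounds, cut at about 42% in these data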;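 further: stock transfer was 100 nL into about 11 µL; a reference agonist was the positive control; negative values mostly stem from fluorescent compounds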
T cruzi inh: inhibitors of intracellular T. cruzi growth, primary screen, luminescence, NIH3T3 host cells. T. cruzi beta-gal in NIH3T3, 90 h. inhibition, % (concentration not given with the values). actives 1.4% (n = 300,000);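 active means mean inhibition across valid replicates above about 55%, limit read from the data; inconclusive means mean below that limit but half or more replicates reach it; inactive means mean below it, under half of replicates reach it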;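 further: signal also drops with host cell toxicity which is not excluded here; 0% = plate median of DMSO wells and 100% = zero luminescence signal; higher percent means less beta-gal luminescence so fewer parasites; stock transfer was 50 nL into about 50 µL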
RanGTP-Imp inh: inhibitors of RanGTP-importin-beta interaction, primary screen, biochemical, FRET, CFP-Ran, YFP-importin-beta, homogeneous; cell-free CFP-Ran/YFP-importin-beta FRET ratio; Ran GTPase (GTP-bound) - importin-beta complex; actives 1.1% (n = 300,000); inhibition, % (test concentration not listed);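 active means most replicates above 15%; inconclusive means exactly half above 15%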;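 further: 0% = DMSO wells and 100% = Ran loaded with GDP instead of GTP; wells of about 40 µL received 100 nL stock; the first replicate is given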
A1 inh: caspase 3/7 activation in MEF A1-2A-BIM cells, primary screen, A1 inhibitor project, cell-based, luminescence, HTS; actives 0.066% (n = 330,000); Caspase-Glo 3/7 luminescence, 3 h; percent of clofoctol response, vehicle zero; caspase activation, % (concentration not given with the values);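 active means over half of replicate activation scores above 10%, or exactly half above 10 with the replicate mean above 10; inconclusive means replicate mean below 10 yet half the replicates above 10; inactive means over half of replicates below 10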;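 further: wells of about 30 µL received 50 nL stock; many hits fall short of the cut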
UCH37 inh: inhibitors of human UCH37 deubiquitinase, primary screen, biochemical, Ub-AMC cleavage, fluorescence; Ubiquitin carboxyl-terminal hydrolase isozyme L5 (Homo sapiens), Q9Y5K5; purified proteasome/UCH37; inhibition, % (test concentration not listed); actives 0.33% (n = 330,000); AID 588478, 2011;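 active means mean of two replicates above 20%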;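 further: 0% = compound-free wells with enzyme and 100% = wells lacking proteasome; stock transfer was 100 nL into about 20 µL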
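Schedule: 30 min plus 25 min, room temperature / Material: human UCH37 within purified proteasomes / Technique: AMC fluorescence intensity at 355/460 nm / Buffer or medium: pH 7.4 Tris-HCl (50 mM) with ovalbumin, ATP-MgCl2, DTT / Controls: wells without proteasome as full block, compound-free enzyme plus substrate as uninhibited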
Starred values were filed as active, the others as inactive; ? = inconclusive; . = no result given.

SMILES	Beta cell apopt	Calb FLC	LANA-H2B inh	Beta2AR agonist	T cruzi inh	RanGTP-Imp inh	A1 inh	UCH37 inh
CCOC(=O)NN=C1c2ccccc2-c2ccccc21	1	9	1.5	-13	12	2.9	-0.5	3.6
CCN(CC)CCCNC(=O)c1cc2c(=O)[nH]c3ccc(C)cc3c2s1	-7	-2	0.2	-16	-14	0.1	0.2	-461
O=C(Nc1ccccc1F)c1ccc2nc(N3C(=O)CCC3=O)sc2c1	-12	-4	-0.6	5	-31	?	-0.3	-0.7
Cc1cccc(NC(=O)CN2CCN(C(=O)C(C)Oc3ccc(C#N)cc3)CC2)c1C (stereo unspecified)	-4	.	2.3	-4	.	.	-0.1	-0.7
O=C(Cc1cccs1)Nc1nc(-c2ccccc2)cs1	6	-42	1.6	-3	-4	1.1	-1.0	2.2
Cc1cc(C)c2c(=O)cc(C(F)F)oc2c1	5	-7	-4.5	-4	-7	0.9	0.6	-1.1
COc1ccccc1C(C)NCC(=O)NCC(=O)Nc1ccc(F)c(F)c1F (stereo unspecified)	-3	-3	2.7	3	-19	-0.1	-0.4	2.1
COc1ccc(C2c3ccc(O)cc3Oc3ncn(Cc4ccco4)c(=N)c32)cc1OC (stereo unspecified)	0	-5	2.9	-3	10	9.8	-1.2	0.8
CN1CCN(c2ccccc2NC(=O)Cc2ccc(Cl)cc2)CC1	-3	-7	3.1	-9	7	-3.4	0.0	0.6
COc1cccc(C(=O)Nc2nnc(-c3ccc(OC)cc3OC)s2)c1	-3	6	4.3	-4	-11	-1.9	-0.7	-24
O=C(CSCc1c(F)cccc1Cl)NCc1ccncc1	1	-4	0.2	-3	-2	4.7	0.7	-0.3
CCC(C)c1ccc(NC(=S)Nc2ccc(OC)c(OC)c2)cc1 (stereo unspecified)	-7	-1	0.9	-3	11	-1.0	0.6	2.8
Cc1cccc(-n2c(SCC(=O)N3CC(=O)Nc4ccccc43)nc3ccccc3c2=O)c1C	6	14	0.8	23	10	3.6	-0.5	6.8
Cc1ccccc1N1CCN(C2CCCN(C(=O)CN3CCCC3=O)C2)CC1 (stereo unspecified)	.	0	3.9	0	5	5.4	0.3	-0.4
CCOC(=O)N/N=C/c1cn(CCCOc2ccccc2)c2ccccc12	-7	1	.	-9	10	-1.4	0.5	.
COc1ccc(N(Cc2cc3cc(OC)ccc3[nH]c2=O)S(=O)(=O)c2ccc(NC(C)=O)cc2)cc1	3	1	1.8	7	29	-0.2	0.3	-66
Cc1ccc(CNC(=O)c2ccccc2N(C)S(C)(=O)=O)cc1	0	2	5.6	8	-9	-2.2	0.1	-0.4
CN(C)S(=O)(=O)c1ccc(N2CCCC2)c(C(=O)Nc2ccc(C(N)=O)cc2)c1	-2	-4	3.9	4	-1	-4.5	-0.5	9.4
COc1ccc(OC)c(S(=O)(=O)Nc2ccc(CC(=O)O)cc2)c1	-3	-6	0.2	-1	-15	4.9	0.6	1.9
Cc1ccc(OCC(=O)OC(C)CN(C)Cc2ccccc2)cc1 (stereo unspecified)	4	2	-5.1	12	-34	5.2	-0.6	2.3
COc1cccc(C(=O)O/N=C/c2ccc(Sc3ccc(C)cc3)nc2)c1	-7	0	1.7	2	0	15	-0.4	.
O=C(O)c1sccc1S(=O)(=O)c1ccccc1	.	-6	0.0	1	-24	2.5	0.4	5.8
Cc1ccc2nc(NCCNC(=O)c3ccccc3)c(C#N)cc2c1	-1	21	-1.2	-10	9	49*	1.8	-105
C=CCN(C(=O)Nc1ccc2c(c1)nc(C)n2C)c1ccccc1	1	8	-1.9	-1	-2	13	0.1	.
CCOC(=O)c1cccc(NC(=O)Nc2ccc3c(c2)C(=O)OC3)c1	-9	-17	-0.5	2	23	-4.5	1.4	0.8
O=c1[nH]c2ccccc2c(=O)n1Cc1ccccc1	1	0	-0.4	1	2	-2.8	0.5	-13
O=C1OCC(c2ccccc2)=C1c1ccccc1[N+](=O)[O-]	4	12	0.8	-8	-9	2.0	-0.1	3.0
O=C(Cc1ccccc1)NCC(=O)OCc1ccccc1F	.	2	4.3	4	-10	-1.8	-0.8	-1.7
COc1ccc(Nc2ncnc3ccccc23)c(OC)c1	-8	9	-6.3	-3	-11	7.1	0.0	3.4
Cc1ccc(SCCC(=O)N/N=C/c2ccncc2)cc1	.	-6	9.3	-5	-8	-2.5	0.3	.
O=C(NCCc1ccccc1)c1noc2c1CCCCC2	-3	7	-2.1	-8	-3	.	0.4	4.8
NC(=O)C1CCN(c2nc(-c3cccc(N)c3)cs2)CC1	10	.	5.8	4	.	.	0.0	-0.3
CCOc1ccc(N=Nc2c(C)[nH]n(-c3ccccc3)c2=O)cc1	.	0	1.4	11	-9	?	-0.2	7.2
NNC(=O)COc1ccc(-c2n[nH]c(C(F)(F)F)c2-c2ccc(Br)cc2)c(O)c1	1	-3	0.7	6	17	-4.1	0.9	1.6
NC(=O)C1CCN(c2ncnc3c(-c4ccccc4)nsc23)CC1	.	-14	-1.8	2	6	-1.0	-1.9	-3.5
Nc1cccc(-n2nnnc2CN2CCOCC2)c1	1	10	-3.9	-1	-14	6.1	-0.4	5.0
COc1ccc(S(=O)(=O)N2CCCCC2)cc1NC(=O)COc1ccccc1	3	1	-8.0	-2	1	.	-0.5	-0.1
Cc1cc(C)nc(NC(=O)c2cccc(Cl)c2)n1	1	13	0.9	-6	-13	11	-1.1	.
Cc1nccn1CC(O)Cn1c2ccccc2c2ccccc21 (stereo unspecified)	2	-19	-3.3	.	8	-1.3	-1.5	2.1
COc1ccc(N2Cc3ccc(C(=O)N/N=C\c4ccc(O)cc4O)cc3C2)cc1	13	93*	-5.5	.	4	-0.7	0.4	.
O=C(Cn1c(=S)[nH]c2ccccc2c1=O)NCCc1ccccc1	-6	8	-2.6	-8	-2	-0.7	0.6	2.8
Cc1onc(-c2ccccc2Cl)c1C(=O)N(Cc1ccc(N(C)C)cc1)C(C)C	-10	28	13*	10	38	-1.5	0.1	5.4
Cc1nn(Cc2ccc(F)cc2)c(C)c1NC(=O)C1c2ccccc2Oc2ccccc21	3	16	4.1	1	13	3.9	0.5	1.3
O=C(Nc1c(C(=O)N2CCOCC2)cnn1-c1ccccc1)c1ccccc1F	0	6	-1.6	3	-8	0.4	0.1	1.3
COC(=O)CCC(=O)OC1(C)C(=O)C=C2C=C(C3CC3)N(CC(C)C)C=C2C1=O (stereo unspecified)	.	-21	.	.	14	8.7	.	4.4
COc1ccc2[nH]c(O)c(N=NC(=N)N)c2c1	-13	-2	1.3	-19	1	2.9	0.6	14
CC(C)c1ccc(CN2C(=O)c3ccccc3S2(=O)=O)cc1	-2	-1	-6.2	6	13	-0.8	0.0	2.0
CC(=O)c1c(C)[nH]c(C(=O)Nc2ccc(Cl)cc2)c1C	1	9	-1.5	10	7	5.0	-0.1	2.1
Cc1ccc(S(=O)(=O)C2(C(=O)NCCc3ccccc3)CC2)cc1	-2	-1	0.8	5	-2	-2.8	1.4	0.1
CC(C(=O)N1CCc2ccccc2C1)N(c1ccccc1)S(C)(=O)=O (stereo unspecified)	-9	2	-0.7	-1	-4	0.1	0.4	6.6
CN(C)c1ccc(CNc2ccccn2)cc1	4	-1	-7.5	1	-8	-4.0	0.5	-0.3
CC(=O)c1cccc(-n2nnnc2SCC(=O)Nc2ccccc2N2CCCCC2)c1	-1	-21	0.3	-8	25	0.3	0.4	0.8
Cc1ccccc1OCCn1cnc2c(N)ncnc21	4	-3	-2.0	11	-9	0.5	-1.2	-0.3
COc1ccc(C2=NOC(Cn3nc(C(=O)NCc4ccc5c(c4)OCO5)cc3-c3ccccc3)C2)cc1 (stereo unspecified)	4	-12	9.1	-8	30	-5.5	0.2	-0.1
CCCOc1ccc2oc(=O)c3c(c2c1)CCCN3C(=O)CN1CCc2ccccc2C1	-3	36	-12	-7	.	.	0.3	-5.5
Cc1nc2cc(C(=O)NCc3ccc4c(c3)OCO4)ccc2n1-c1ccc(Br)cc1	2	-7	4.6	0	-4	-2.1	0.2	0.3
CNc1nnc(C(F)(F)F)s1	-4	-2	16*	1	-26	?	0.7	1.1
CS(=O)(=O)c1ccc(Cl)c(NC(=O)CCN2C(=O)NC3(CCCC3)C2=O)c1	-8	.	-4.7	-13	.	.	2.0	0.1
Cc1ccc(S(=O)(=O)N(CC(=O)Nc2ccc(C)cc2C)C(=O)N2CCN(C)CC2)cc1	-6	-5	-1.5	-4	-19	-1.0	0.9	-2.8
Nc1nc(CSc2ncn[nH]2)nc(Nc2ccc(F)cc2)n1	2	4	-6.2	-8	-13	-2.1	0.2	-1.0

Further entries:
SMILES	Beta cell apopt	Calb FLC	LANA-H2B inh	Beta2AR agonist	T cruzi inh	RanGTP-Imp inh	A1 inh	UCH37 inh
CCn1c(SCC(=O)NC2CCCCC2)nc2c(c1=O)SCC2	-3	-1	2.0	-7	1	-1.6	-0.3	6.3
CCCNC(=O)N1CCN(S(=O)(=O)c2ccc(C)cc2)CC1	-4	-2	4.3	-1	-1	?	-0.1	2.9
CCOCCOC(=O)c1[nH]c2c(c1C)C(=O)CC(c1cc(OC)c(OC)c(OC)c1)C2 (stereo unspecified)	25	-3	-0.6	6	-9	6.4	-0.3	3.6
Cc1ccc(NC(=O)CN2CCN(CCN=CC3=C(O)CC(c4ccccc4)CC3=O)CC2)cc1 (stereo unspecified)	-4	-7	-2.4	-4	1	2.8	0.5	4.2
COc1cccc(/C=C/C(=O)OCC(=O)NCc2ccco2)c1	0	-1	-5.1	8	-12	-2.7	1.5	-22
O=c1ncc(F)c[nH]1	-1	.	-1.9	.	-13	1.3	-0.3	.
COc1ccc(CCNC(=O)c2c(Cl)ccc(Cl)c2OC)cc1OC	-1	-4	-1.1	-3	5	-3.2	1.7	.
Cc1cc(C(=O)OCC(=O)NCc2cccs2)ccc1[N+](=O)[O-]	-6	.	0.5	-7	.	.	0.7	-0.9
CCc1nnc(N2C(=O)c3cccc4cccc(c34)C2=O)s1	.	-4	-0.3	3	-20	6.7	-0.4	-66
CC1CCN(Cc2cnc(Cl)s2)CC1	-6	23	1.4	-6	.	-1.0	0.5	2.7
CCOc1ccc(-c2c(C(=O)N/N=C/c3cccnc3)nnn2-c2nonc2N)cc1	-6	13	6.4	4	-1	3.9	1.9	.
COc1ccc(OC)c(NC(=O)CCNS(=O)(=O)c2cccc3nonc23)c1	-1	2	1.4	-5	12	-0.9	-0.9	6.0
CCN(CC)C(=O)CN1CCN(c2ccccc2F)CC1	.	0	3.0	0	-6	-2.1	0.5	5.0
COc1ccc(N(C(=O)c2snc(C(N)=O)c2N)C(C(=O)NC2CCCC2)c2cc(OC)ccc2OC)c(OC)c1 (stereo unspecified)	-2	-7	6.6	3	26	1.8	0.2	-9.1
